Bioassay records (PubChem BioAssay)
HSD17B inhib = inhibitors of human HSD17B10 dehydrogenase; Q99714; recombinant HSD17B10, NADH fluorescence kinetic; many of its hits are not listed in these tables; Potency, µM (highest dose often 57.1 µM), without a hit: at the highest dose activity change, negative = inhibition, actives largely listed as inhibitors; 7.6% of 75,000 active; AID 893; active means well fitted inhibition curve with a large enough effect; inconclusive means small, poorly fitted or top-dose-only effect; inactive means no such curve, though single readings can be large or run the other way;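 further: the protocol describes HADH2 (HSD17B10) and not the HSD17B4 of the title; nearly all actives have a fitted effect of over 70% in size; most hits overshoot -100% by far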
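Enzyme plus compound, 15 min room temperature; substrate mix added (NAD+ 1 mM, beta-hydroxybutyryl-CoA 90 uM final); plates read kinetically for NADH fluorescence. HADH2 was His-tagged, E. coli-derived, 20 nM.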
Numbers without * were called inactive; ? = inconclusive; [ ] = dose if it differs, or a comment. On the % scale 0 is the no-effect control and ±100 the full control effect; potency means the concentration at half of the fitted maximal effect.

> c1ccc2[nH]c(CCNC3CCCCC3)nc2c1
  HSD17B inhib = 7%
> CCc1cc2c(s1)NC(=O)CN=C2c1cccs1
  HSD17B inhib = -4%
> COc1ccc2c(c1O)-c1cccc3c1[C@H](C2)N(C)CC3
  HSD17B inhib = 25µM*
> CCOC(=O)C1C2NC(=O)N(Cc3ccccc3)C1(C)Oc1c(OC)cccc12 (stereo unspecified)
  HSD17B inhib = 12%
> Cc1ccc(N(C)C(=O)Oc2cccc3cccnc23)cc1
  HSD17B inhib = 4%
> O=C(Cc1ccccc1)N1CCN(C/C=C/c2ccccc2)CC1
  HSD17B inhib = 4%
> C=C(C)[C@H]1C2C(=O)O[C@H]1[C@H]1OC(=O)[C@@]34O[C@@H]3C[C@]2(O)[C@@]14C
  HSD17B inhib = 10%
> Nc1cc(Cl)cc(C(=O)O)c1Cl
  HSD17B inhib = 3%
> COc1ccc(N2C(=O)CC(N3CC=C(c4ccccc4)CC3)C2=O)cc1 (stereo unspecified)
  HSD17B inhib = -16%
> CN1C[C@@H](CS(=O)(=O)N(C)C)C[C@H]2c3cccc4c3c(cn4C)C[C@@H]21
  HSD17B inhib = -11%
> CC(C)COC(=O)c1ccccc1C(=O)OCC(C)C
  HSD17B inhib = -2%
> CC(C)C12CN3CCN(CC(C3)C1O)C2 (stereo unspecified)
  HSD17B inhib = -11%
> c1ccc2c(c1)CCNC2
  HSD17B inhib = 2%
> CC(C(=O)N1CCC2(CC1)OCCO2)C1Sc2ccccc2NC1=O (stereo unspecified)
  HSD17B inhib = 3%
> O=S(=O)(O)c1cc(O)ccc1O
  HSD17B inhib = ?
> CCc1c(C)c2ccc(OCC(N)=O)cc2oc1=O
  HSD17B inhib = 32µM*
> CN(C)C=C1C(=O)N(C2CCCCC2)C(=O)N(C2CCCCC2)C1=O
  HSD17B inhib = -8%
> Cc1cc(N2C(=O)C3CCCN3C2c2sccc2C)no1 (stereo unspecified)
  HSD17B inhib = -2%
> c1cncc(C2CCCCN2Cc2ccc3c(c2)OCO3)c1 (stereo unspecified)
  HSD17B inhib = -12%
> Cn1cnc(CCN)c1
  HSD17B inhib = -4%
> CCC(=Nc1ccc(OC)cc1OC)c1c(O)n(C2CCCCC2)c(=O)[nH]c1=O
  HSD17B inhib = -17%
> CN1C(=O)C(Cc2ccc3c(c2)OCO3)C(=O)N(C)C1=O
  HSD17B inhib = -6%
> CC(C)c1c(CN(C)[C@@H](C)Cc2ccccc2)n(C)n(-c2ccccc2)c1=O
  HSD17B inhib = -1%[25.6 µM]
> O=c1cccc2n1CC1CC2CN(C(c2cccc(F)c2)c2sc3ncnn3c2O)C1 (stereo unspecified)
  HSD17B inhib = 6%
> Clc1ccc([C@@H]2C[C@H]3CC[C@@H]2N3)cn1
  HSD17B inhib = -1%

> O=c1[nH]c(=O)n(Cc2ccco2)c(O)c1C=NC1CC1
  HSD17B inhib = -2%
> c1ccc(N2CCCC3(CCNCC3)C2)nc1
  HSD17B inhib = 32µM*
> N#Cc1ccc(N2CCNCC2)c(F)c1
  HSD17B inhib = 5%
> CCN(CC)CCCN=C(C)c1c(O)n(-c2ccccc2)c(=O)[nH]c1=O
  HSD17B inhib = 2%
> O=C(CN1CC(c2ccccc2)CC1=O)Nc1ccc(F)cc1 (stereo unspecified)
  HSD17B inhib = 5%
> CCn1c(=O)cc(OCC(=O)N2CCN(Cc3ccc4c(c3)OCO4)CC2)c2ccccc21
  HSD17B inhib = 3%
> Cc1cc(C)c(C(=O)CN2CCOCC2)c(C)c1
  HSD17B inhib = 6%
> NCCc1cc(O)c(O)cc1O
  HSD17B inhib = ?
> CCOP(=S)(OCC)SCn1c(=O)oc2cc(Cl)ccc21
  HSD17B inhib = ?
> CCOc1ccc(Br)c(C2(O)CC(C)N(C)CC2C)c1 (stereo unspecified)
  HSD17B inhib = 1%
> CCOC(=O)CC(SP(=S)(OC)OC)C(=O)OCC (stereo unspecified)
  HSD17B inhib = 32µM*
> O=C(CCCOc1ccc(Cl)cc1Cl)N1CCC2(CC1)OCCO2
  HSD17B inhib = -23%
> CSc1nnc([C@@H](N)Cc2ccccc2)o1
  HSD17B inhib = 9%
> c1cncc(C2CCCCN2)c1 (stereo unspecified)
  HSD17B inhib = -3%
> CCCCC(=O)C1C(=O)NC(=O)NC1=O
  HSD17B inhib = 2%
> Cc1ccc(N=Cc2c(O)n(C)c(=O)n(C)c2=O)nc1
  HSD17B inhib = ?
> C[C@@]12CC[C@H](O)C[C@@H]1CC[C@H]1[C@H]2CC[C@@]2(C)[C@@H](C3=CC(=O)OC3)CC[C@]12O
  HSD17B inhib = -1%[25.6 µM]
> CCOc1cc(-c2nc3c(C)cccn3c2NCC2CCCO2)ccc1O (stereo unspecified)
  HSD17B inhib = 25µM*
> CC1CCN(c2nc(-c3ccc(F)cc3)cc(C(F)(F)F)n2)CC1
  HSD17B inhib = ?
> CCCCCc1cc(O)cc(O)c1
  HSD17B inhib = -1%
> CC(=O)c1cccc(NC2=NCC(C)S2)c1 (stereo unspecified)
  HSD17B inhib = 6%
> CCOC(=O)c1cn2nc(OP(=S)(OCC)OCC)cc2nc1C
  HSD17B inhib = -4%
> Fc1ccc2c(c1)nnn2C1CCN(Cc2nnnn2C2CCCCC2)CC1
  HSD17B inhib = -1%
> Cc1ccc(Cn2nnnc2CN2CCC(n3nnc4cc(C(F)(F)F)ccc43)CC2)cc1
  HSD17B inhib = -2%
> O=S(=O)(c1ccccc1)N1CN2CCN(C2)C1
  HSD17B inhib = 20%

Of the compounds above, five contain four or more nitrogen atoms.
> O=c1cccc2n1CC1CC2CN(C(c2cccc(F)c2)c2sc3ncnn3c2O)C1 (stereo unspecified)
  HSD17B inhib = 6%
> CCN(CC)CCCN=C(C)c1c(O)n(-c2ccccc2)c(=O)[nH]c1=O
  HSD17B inhib = 2%
> Cc1ccc(N=Cc2c(O)n(C)c(=O)n(C)c2=O)nc1
  HSD17B inhib = ?
> Fc1ccc2c(c1)nnn2C1CCN(Cc2nnnn2C2CCCCC2)CC1
  HSD17B inhib = -1%
> Cc1ccc(Cn2nnnc2CN2CCC(n3nnc4cc(C(F)(F)F)ccc43)CC2)cc1
  HSD17B inhib = -2%

The listing continues.
> O=C(C1CCCN(c2nnc(-n3cccc3)s2)C1)N1CCC2(CC1)OCCO2 (stereo unspecified)
  HSD17B inhib = -9%
> CCC(=NCC1CCCO1)c1c(O)n(-c2ccc(Cl)cc2)c(=O)[nH]c1=O (stereo unspecified)
  HSD17B inhib = 7%
> Cc1ccc2c(c1)CC1(CN2C)C(=O)NC(=O)N(CCC2=CCCCC2)C1=O (stereo unspecified)
  HSD17B inhib = -11%
> CN(CCc1ccc(Cl)c(Cl)c1)[C@H]1CCCC[C@H]1N1CCCC1
  HSD17B inhib = -5%
> CCOc1ccccc1-n1c(O)c(C=NCCCN(CC)CC)c(=O)[nH]c1=O
  HSD17B inhib = 6%
> CCNC(=O)C1OC(n2cnc3c(N)ncnc32)C(O)C1O (stereo unspecified)
  HSD17B inhib = 5%
> CC(C)(OOC(C)(C)c1ccccc1)c1ccccc1
  HSD17B inhib = 0%
> N=C(N)c1c(O)n(C2CCCCC2)c(=O)n(C2CCCCC2)c1=O
  HSD17B inhib = -2%
> O=C1OCCN1P(=O)(c1ccccc1)c1ccccc1
  HSD17B inhib = -2%
> O=P(O)(O)/C=C(\Cl)c1ccccc1
  HSD17B inhib = 2%
> CCN(CC)P(=O)(Oc1cccc(C)c1)N(CC)CC
  HSD17B inhib = 3%
> COc1ccc2c(c1O)-c1c(OC)c(OC)cc3c1[C@H](C2)N(C)CC3
  HSD17B inhib = ?
> CN(C(=O)Cc1ccc(Cl)c(Cl)c1)[C@H](CN1CCCC1)c1ccccc1
  HSD17B inhib = -10%
> COC(=O)/C(C)=C\CC12OC(C)(C)C3CC(C=C4C(=O)c5c(OC)c6c(c(CC=C(C)C)c5OC431)OC(C)(CCC=C(C)C)C=C6)C2=O (stereo unspecified)
  HSD17B inhib = -19%
> CC(C)=CCCC1(C)C=Cc2c(O)c3c(c(CC=C(C)C)c2O1)OC12C(=CC4CC1C(C)(C)OC2(C/C=C(/C)C(=O)O)C4=O)C3=O (stereo unspecified)
  HSD17B inhib = 25µM*
> c1ccc2sc(C3CCCNC3)nc2c1 (stereo unspecified)
  HSD17B inhib = -2%
> c1ccc(-c2nnc(SCc3nc4ccccc4[nH]3)o2)cc1
  HSD17B inhib = ?
> O=C(O)[C@@H]1C[C@H]2C[C@@H](CP(=O)(O)O)CC[C@H]2CN1
  HSD17B inhib = 15%
> CCCN(CCC)CCc1ccc(O)c(O)c1
  HSD17B inhib = ?
> Cc1cccc(N2C(=O)CC(=O)NC2=O)c1
  HSD17B inhib = -13%
> CSc1ccc(CNC2CN3CCC2CC3)cc1 (stereo unspecified)
  HSD17B inhib = -2%
> O=C(O)C1=CCCN(CCOC(c2ccc(C(F)(F)F)cc2)c2ccc(C(F)(F)F)cc2)C1
  HSD17B inhib = -20%
> CCCCCCCCCCCCCC(=O)OC1C(C)[C@@]2(O)C(C=C(CO)C[C@]3(O)C(=O)C(C)=C[C@H]23)[C@@H]2C(C)(C)[C@]12OC(C)=O (stereo partly specified)
  HSD17B inhib = -1%
> O=C(Nc1ccccc1)NC1CC2CCC(C1)N2 (stereo unspecified)
  HSD17B inhib = -6%
> CN(C(=O)c1ccco1)C1(c2ccccc2Cl)CCCCC1=O (stereo unspecified)
  HSD17B inhib = 15%

> COc1ccc(OC)c(N2C(=O)NC(=O)C3(Cc4cc(C)ccc4N(C)C3)C2=O)c1 (stereo unspecified)
  HSD17B inhib = 2%
> c1ccc2c(c1)[nH]c1ccccc12
  HSD17B inhib = ?
> CCN(CC)c1ccccc1
  HSD17B inhib = 5%
> O=C1N[C@@]2(CN3CCC2CC3)C(=O)N1CN(Cc1ccccc1)c1ccccc1
  HSD17B inhib = 9%[11.4 µM]
> CCN(CC)CCCN=C(C)c1c(O)n(-c2ccc(C)cc2)c(=O)[nH]c1=O
  HSD17B inhib = 6%
> Cc1ccc2c(c1)C1CN(C)CCC1N2C(=O)COc1ccc(S(=O)(=O)N2CCOCC2)cc1 (stereo unspecified)
  HSD17B inhib = -1%
> CC1CC2CC(=O)C3CCCN4CCCC2[C@]34C1 (stereo partly specified)
  HSD17B inhib = -1%
> CC12CN3CC(C)(CN(C1)C3c1ccco1)C2=O (stereo unspecified)
  HSD17B inhib = 13%
> CCC(=O)O[C@H]1CC[C@H]2[C@@H]3CCC4=CC(=O)CC[C@]4(C)[C@H]3CC[C@]12C
  HSD17B inhib = 2%[25.6 µM]
> CC1CC[C@@]2(NC1)O[C@@H]1C[C@H]3C4CC=C5C[C@@H](O)CC[C@]5(C)C4CC[C@]3(C)[C@H]1[C@@H]2C (stereo partly specified)
  HSD17B inhib = 0%
> CCN1C[C@]2(C)CC[C@@H](O)[C@]34[C@@H]5CC6[C@@H](OC)C[C@@](O)([C@H]5[C@@H]6O)[C@@H](C[C@@H]23)[C@H]14
  HSD17B inhib = 2%
> Cc1oc(-c2ccc(Cl)cc2)nc1CS(=O)CC(=O)N1CCC2(CC1)OCCO2 (stereo unspecified)
  HSD17B inhib = -24%
> c1ccc2c(N3CCNCC3)cccc2c1
  HSD17B inhib = ?
> Cl/C=C\Cl
  HSD17B inhib = -1%
> O=c1c2ccccc2nc(-c2ccco2)n1-c1cccnc1
  HSD17B inhib = -11%
> Cc1ccc2nc3c(cc2c1)CC1(C(=O)N(C)C(=O)N(C)C1=O)C1COCCN31 (stereo unspecified)
  HSD17B inhib = ?
> CCCC(C)C1(CC)C(=O)NC(=Nc2ccc(F)cc2)NC1=O (stereo unspecified)
  HSD17B inhib = 4%
> COc1ccc(CN2CCN(C(=O)Cc3ccccc3)CC2)c(OC)c1
  HSD17B inhib = 10%
> COc1ccc(C2NCc3ccc4c(c3-n3cccc32)OCO4)cc1OC (stereo unspecified)
  HSD17B inhib = -2%
> CCC(=NC1CC1)c1c(O)n(-c2ccc(OC)cc2)c(=O)[nH]c1=O
  HSD17B inhib = 1%
> Cn1ccnc1P(=S)(c1nccn1C)N1CCOCC1
  HSD17B inhib = -14%
> O=S1(=O)N(CCN2CC=C(c3c[nH]c4cc(F)ccc34)CC2)c2cccc3c2N1CCC3
  HSD17B inhib = -7%
> CC(CO)(CO)N=Cc1c(O)n(-c2cccc3ccccc23)c(=O)[nH]c1=O
  HSD17B inhib = -4%
> CC(C)Nc1ccc(Nc2ccccc2)cc1
  HSD17B inhib = 4%
> CCOC(=O)C1=C(N)Oc2c(c(=O)oc3ccccc23)C12C(=O)N(C)c1ccccc12 (stereo unspecified)
  HSD17B inhib = 2%
> COc1cc(C2SCC(=O)Nc3c2c(=O)[nH]n3C2CCCCCC2)cc(OC)c1OC (stereo unspecified)
  HSD17B inhib = 11%
> O=C(Cn1ncc2c3ccccc3n(Cc3ccccc3)c2c1=O)N1CCC2(CC1)OCCO2
  HSD17B inhib = 20µM*
> CC(C)c1ccc(C(O)(C(=O)O)c2ccc(C(C)C)cc2)cc1
  HSD17B inhib = 12%[11.4 µM]

5 entries picked at random from the list so far, as already listed:
> c1ccc2[nH]c(CCNC3CCCCC3)nc2c1
  HSD17B inhib = 7%
> CC(=O)c1cccc(NC2=NCC(C)S2)c1 (stereo unspecified)
  HSD17B inhib = 6%
> Cc1oc(-c2ccc(Cl)cc2)nc1CS(=O)CC(=O)N1CCC2(CC1)OCCO2 (stereo unspecified)
  HSD17B inhib = -24%
> Cc1cc(N2C(=O)C3CCCN3C2c2sccc2C)no1 (stereo unspecified)
  HSD17B inhib = -2%
> CC(C)Nc1ccc(Nc2ccccc2)cc1
  HSD17B inhib = 4%

Some of the compounds tested, so the mix of outcomes need not match the whole.
